Bioassay records as filed in PubChem BioAssay.
Hsc70: small molecules displacing fluorescent ligand from Hsc70 – biochemical, fluorescence polarization, primary screen (AID 568) | 83,000 tested, under 10 active | Hsc70 fluorescence polarization, probe displacement; higher % means a stronger effect; strong numbers were not always called active | displacement, % at 20 µM, or IC50 in µM where a hit was titrated;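 active means displacement above 50% without optical interference and an IC50 on retest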;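 further: ATPase domain with a fluorescein-tagged ATP probe; 0% = vehicle and 100% = excess ADP; read after one hour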
MT1-MMP promoter: inhibitors of MT1-MMP promoter transcription, cell-based, luciferase reporter, luminescence (AID 618) | MT1-MMP promoter luciferase reporter cells, luminescence | calls from a first round at 10 µM; hits with a dose series show EC50 in µM | 0.62% of 87,000 active;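 active means over half of the reporter light lost at 10 µM or EC50 under 50 µM; inactive means the rest and hits that failed the dose series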;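 further: actives suppress MT1-MMP promoter-driven transcription so potencies describe inhibitors; HT1080 fibrosarcoma cells; overnight exposure; toxic or luciferase-blocking compounds were not removed from the actives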
WNV protease inh: blocks West Nile virus NS2B-NS3 protease activity | WNV NS2B-NS3 protease, fluorogenic substrate Ex360/Em465; hits give low values | z-score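 (tested at a level between 10 and 100 µM)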 | 0.18% of 65,000 active | AID 577 | P06935;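 active means z-score at -3 or under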;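 further: score is relative to mean and spread of the compound wells of a plate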
Target sequence (P06935 1371-1501 limits assumed): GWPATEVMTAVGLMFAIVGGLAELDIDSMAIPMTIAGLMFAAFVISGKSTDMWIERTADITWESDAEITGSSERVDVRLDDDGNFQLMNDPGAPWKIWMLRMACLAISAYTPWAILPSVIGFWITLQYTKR
Target sequence (P06935 1502-1679 limits assumed): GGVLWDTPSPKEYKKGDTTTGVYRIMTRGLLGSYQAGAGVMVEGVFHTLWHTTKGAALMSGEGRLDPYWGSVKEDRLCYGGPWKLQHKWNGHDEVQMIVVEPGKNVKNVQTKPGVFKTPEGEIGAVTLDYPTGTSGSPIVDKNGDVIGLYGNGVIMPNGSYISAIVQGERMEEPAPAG
Starred values were filed as active, the others as inactive; i = inactive; / = not tested or not shown.

SMILES	Hsc70	MT1-MMP promoter	WNV protease inh
COc1ccc(-n2nc(C(=O)N3CCCCC3)c3ccccc3c2=O)cc1	7.3%	i	-0.18
CS(=O)(=O)N(Cc1ccccc1)c1ccc(C(=O)NCc2ccccc2)cc1	-2.3%	i	/
Cc1ccc(S(=O)(=O)Nc2ccc(S(=O)(=O)NC(C)(C)C)cc2)cc1	1.1%	i	/
O=C(OCC(=O)N1CCN(C(=O)c2ccco2)CC1)c1ccccc1C(=O)c1ccccc1	4.9%	i	1.3
CC(C)CC(=O)Nc1ccc2oc(-c3ccncc3)nc2c1	-3.3%	i	1
O=C(c1ccccc1C(=O)N1CCN(c2ccc(F)cc2)CC1)N1CCN(c2ccc(F)cc2)CC1	16%	i	-1.1
COC(=O)c1cc2ccccc2c(=O)s1	-3.0%	i	0.89
CCO/C(C)=C1\C(=O)Nc2ccccc21	2.5%	i	/
CCOC(=O)C1CCN(S(=O)(=O)Cc2ccccc2)C1=O (stereo unspecified)	0.6%	i	-0.53
Cn1cnnc1SC(C(=O)Nc1cccc(C(F)(F)F)c1)c1ccccc1 (stereo unspecified)	-4.7%	i	/
N#Cc1cc2c([nH]c1=S)CCCCCC2	-0.6%	i	0.31
COCCCNC(=O)c1ccc(N(C)S(C)(=O)=O)cc1	-7.1%	i	0.03

Part of the list above, set out differently:
mol,Hsc70,MT1-MMP promoter,WNV protease inh
O=C(c1ccccc1C(=O)N1CCN(c2ccc(F)cc2)CC1)N1CCN(c2ccc(F)cc2)CC1,16%,i,-1.1
COC(=O)c1cc2ccccc2c(=O)s1,-3.0%,i,0.89

Continuation:
SMILES	Hsc70	MT1-MMP promoter	WNV protease inh
COC(=O)C(NC(=O)c1ccccc1)=C(C)C	-5.0%	i	-0.83
CCn1c(SCC(=O)Nc2nc(-c3ccc(C)cc3)cs2)nnc1-c1ccccc1O	6.1%	i	-0.4
CN(c1ccc(OCc2nnc(-c3ccccc3)o2)cc1)S(=O)(=O)c1ccccc1	2.0%	i	0.09
Cc1cccc(N2CCN(C(=O)CCn3c(=O)[nH]c4ccccc4c3=O)CC2)c1C	-4.9%	i	0.37
O=C(CSC1CCCCC1)Nc1nccs1	-1.9%	i	-2.2
Cc1ccc(S(=O)(=O)/N=C(\Sc2ccccc2)c2ccccc2)cc1	-3.2%	i	/
CCOc1cc(C2NC(=O)NC(O)(C(F)(F)F)C2C(=O)c2ccc(Cl)cc2)ccc1O (stereo unspecified)	2.0%	i	-0.55
O=[N+]([O-])c1cc(/C=N\Nc2nccs2)ccc1O	0.7%	i	/
CCOc1ccc(OCCCCN2CCCC2)cc1	-3.3%	i	/
CC1CC(N(C(=O)c2ccco2)c2ccccc2)c2ccccc2N1 (stereo unspecified)	-0.7%	i	-1
COCC(C)n1c(COc2ccccc2F)nnc1SCc1c(C)noc1C (stereo unspecified)	-3.1%	i	-1.4
CCOc1ccc(Nc2oc(-c3ccc(Cl)cc3)nc2C#N)cc1	-1.6%	i	/
CCn1c(CC(C)C)n[nH]c1=S	-6.6%	i	-0.29
CC(C)CC(=O)Nc1cccc(-c2nc3ccccc3o2)c1	-6.2%	i	0.57
COc1ccc(NC(=O)c2cccs2)cc1	5.5%	i	/
COc1ccc(CN(C(=O)c2cccs2)c2nccs2)cc1OC	1.7%	i	-0.15
CCOC(=O)Nc1cc(C(=O)OCC)c(C)nc1C	-0.3%	i	0.94
Cc1nc(N2CCOCC2)[nH]c(=O)c1CCC(C)C	2.3%	i	-0.4
Cn1c(=O)c(C(=O)Nc2ncccc2O)c(O)c2ccccc21	1.0%	i	-0.84
COC(=O)c1cn(CC(=O)NCc2ccco2)c2ccccc12	5.3%	i	-0.85
CCC(=O)Nc1nc2ccccc2n1CCN(CC)CC	-0.9%	i	0.07
Oc1ccc(Cl)cc1-c1cc(-c2ccccc2)n[nH]1	2.5%	i	0.55
C=CCn1c(COc2ccccc2)nnc1SCC(=O)Nc1ccc2c(c1)OCCO2	0.0%	i	-0.73
COC(=O)c1c(-c2ccncc2)csc1NC(=O)c1ccoc1C	2.7%	i	-0.1

Five compounds picked at random from the list so far:
SMILES	Hsc70	MT1-MMP promoter	WNV protease inh
Cn1cnnc1SC(C(=O)Nc1cccc(C(F)(F)F)c1)c1ccccc1 (stereo unspecified)	-4.7%	i	/
CCOc1ccc(OCCCCN2CCCC2)cc1	-3.3%	i	/
CC(C)CC(=O)Nc1cccc(-c2nc3ccccc3o2)c1	-6.2%	i	0.57
CCn1c(SCC(=O)Nc2nc(-c3ccc(C)cc3)cs2)nnc1-c1ccccc1O	6.1%	i	-0.4
Oc1ccc(Cl)cc1-c1cc(-c2ccccc2)n[nH]1	2.5%	i	0.55

Next part:
SMILES	Hsc70	MT1-MMP promoter	WNV protease inh
CN(C)c1nc(Oc2ccc(=O)n(-c3ccccc3)n2)nc(N2CCOCC2)n1	-2.0%	i	0.52
COc1ccc(C)cc1NC(=O)c1cnc2sccn2c1=O	-0.4%	i	-1.2
CCCOC(=O)CC1C(=O)NCCN1Cc1ccccc1C (stereo unspecified)	-1.3%	i	0.17
Cc1ccc(SCCNS(=O)(=O)c2ccc(F)cc2)cc1	2.2%	i	-0.73
CCCS(=O)(=O)n1nc(-c2ccc(Br)cc2)cc1N	1.0%	i	0.29
Cc1ccc(C)c(Oc2nnnn2-c2ccccc2)c1	1.8%	i	1.4
CC1(c2cnc(Nc3ccccc3)s2)CCC(=O)O1 (stereo unspecified)	-15%	i	-0.27
Cc1nc2n(n1)C(c1ccccc1)C1=C(CC(c3ccco3)CC1=O)N2 (stereo unspecified)	-7.3%	i	-0.64
Cc1cc(C(=O)CSCc2nnc3n(CCC(C)C)c(=O)c4ccccc4n23)c(C)n1C	-5.9%	i	-0.34
CCn1c(CSc2nnc3ccccn23)nc2cc(C(=O)O)ccc21	20%	i	0.28
COC(=O)Nc1ccc(S(=O)(=O)N2CCCC(C(=O)Nc3cccnc3)C2)cc1 (stereo unspecified)	0.7%	i	/
Cc1cccn2c(=O)c3cc(C(=O)N4CCN(c5ccccc5)CC4)n(C)c3nc12	-0.7%	i	0.57
CC/C(=C\C(=O)c1ccncc1)Nc1ccc(O)cc1	0.4%	i	0.79
O=C(NCCN1CCOCC1)c1ccc(Cl)c(S(=O)(=O)N2CCCCCC2)c1	0.2%	i	-0.44
O=C(c1ccccc1)C(CCC(CN1CCOCC1)C(=O)c1ccccc1)CN1CCOCC1 (stereo unspecified)	-0.1%	i	0.38
Cc1cc(C)cc(-n2nnc(C(=O)NCc3ccccc3)c2N)c1	-2.3%	i	-1.6
Cc1ccc(NC(=O)C2CCN(C(=O)NC3CCCCC3)CC2)c(C)c1	4.4%	i	/
CCn1c(CNc2ccc(F)cc2)nnc1SCC(=O)N1CCCc2ccccc21	3.3%	i	-0.78
Cn1c(=O)[nH]c(=O)c2c1nc(NC1CCCCC1)n2Cc1ccccc1	-3.1%	i	-1.4
CCc1nnc(NC(=O)CSc2nnc(-c3cccnc3)n2CCc2ccccc2)s1	-4.1%	i	-0.48
O=C(O)c1cccc(-c2nnn(Cc3ccccc3)n2)c1	1.6%	i	/
Cc1ccc(S(=O)(=O)N2CCCCC2C(=O)N2CCN(Cc3ccccc3)CC2)cc1 (stereo unspecified)	-4.3%	i	-0.41
O=C(CN(c1ccc(Cl)c(C(F)(F)F)c1)S(=O)(=O)c1ccccc1)N1CCOCC1	-5.6%	i	1.9
O=C(Nc1ccc(S(=O)(=O)NCCc2ccccc2)cc1)c1ccco1	4.0%	i	1.1
COc1ccc(N=c2scc(-c3ccc(OC)cc3)n2CCO)cc1	-2.2%	i	/
CCCCN(C)CCn1c(=S)[nH]c2ccc(N3CCOCC3)cc2c1=O	-3.0%	i	-0.35
CCCC(=O)N1c2ccccc2C(N(C(C)=O)c2ccccc2)CC1C (stereo unspecified)	4.1%	i	/
O=C1CSC(=S)N1CC1CCCO1 (stereo unspecified)	-3.6%	i	2.2
COc1cccc(-n2nnc3c(=O)n(CC(=O)N4CCC(C)CC4)cnc32)c1	-3.5%	i	0.88
Cn1nc(-c2ccc(Cl)cc2)c2cc(C(=O)N3CCOCC3)sc21	-0.3%	i	0.72
COc1ccc(-c2nncnn2)cc1	5.9%	i	/
O=C(Nc1ccccc1)N1CCCc2ccccc21	1.3%	i	/
CCOC(=O)C1CCCN(c2c(NCC3CCCO3)c(=O)c2=O)C1 (stereo unspecified)	1.6%	i	0.81
COc1ccc(-n2nnnc2SCC#CCO)cc1	4.1%	i	0.53
Cc1ccccc1-n1c(=O)cc(N2CCN(Cc3ccccc3)CC2)[nH]c1=O	1.8%	i	0.24
COc1nc(Oc2ccc(=O)[nH]n2)nc(N2CCOCC2)n1	1.0%	i	0.26
CC1CC(C)CN(CCOc2ccc(Cl)cc2Cl)C1 (stereo unspecified)	0.3%	i	/
Cc1ccc(S(=O)(=O)c2c(C)nn(C(C)(C)C)c2OC(=O)C2CCCC2)cc1	-8.0%	i	0.08
O=c1c2ccccc2c(/C=N/n2cnnc2)c(O)n1-c1ccccc1F	15%	i	-0.9
CN(C)S(=O)(=O)N1CCN(c2ccccc2)CC1	2.8%	i	/
Cc1ccc(C(C(=O)NC(C)(C)C)N(C(=O)c2csnn2)C2CC2)cc1 (stereo unspecified)	2.4%	i	/
Cc1ccc(N(CC(=O)Nc2cccc(N(C)S(C)(=O)=O)c2)S(C)(=O)=O)cc1	-4.5%	i	/
Cc1ccc(C(=O)N2CCCCCC2)cc1Br	-4.1%	i	-1.1
O=C(NCc1ccco1)c1ccc(Cn2c(=O)c3ccccc3n(Cc3ccc(Cl)cc3)c2=O)cc1	1.6%	i	/
CCCC(C(=O)c1ccccc1)n1cncn1 (stereo unspecified)	-10%	i	-0.71
Cc1ccc(-c2nnc(N3CCN(C(=O)COc4ccccc4)CC3)c3ccccc23)cc1	-0.2%	i	/
COc1ccc2c(c1)nc(N)n2Cc1ccccc1	6.0%	i	-0.33
Cn1c(N)c(C#N)c2c(c1=S)COC(C)(C)C2	0.7%	i	/
Cn1c(SCc2ccc(C#N)cc2Cl)nc2ccccc21	-1.3%	i	0.86
Cc1csc(SCc2nnc(-c3ccccc3Br)o2)n1	-6.6%	i	0.0032
O=C(CN1CCNCC1)Nc1ccccc1Cl	4.4%	i	-1
CCOc1cc(C#N)c(NC(=O)Cn2nnc3ccccc32)cc1OCC	-8.3%	i	-1.2
CCOC(=O)N1CCN(C(=O)CSc2nnc(-c3cccc(OC)c3)o2)CC1	-0.9%	i	-0.5
O=C(O)CCSCCC(=O)O	-2.6%	i	-1
O=C(CSc1nc(-c2ccccc2)cc(C(F)(F)F)n1)NCCN1CCOCC1	-3.0%	i	0.75
COc1ccccc1-c1nnc2sc(-c3cc4ccccc4o3)nn12	5.0%	i	0.43
Cc1ccccc1Nc1nc(N)nc(CN(C)c2ccccc2)n1	1.8%	i	0.29
COc1ccc(-c2ccc(C(=S)N3CCN(C(C)=O)CC3)o2)cc1	-2.0%	i	-0.62
COc1ccccc1NC(=O)CSc1nnc(-c2ccoc2C)n1CCc1ccccc1	1.2%	i	0.14
CCOCCn1c(SCc2ccc(F)cc2)nc2c1c(=O)[nH]c(=O)n2C	6.3%	i	-0.3
Continuation:
SMILES	Hsc70	MT1-MMP promoter	WNV protease inh
CCOC(=O)c1c(C)c(C(=O)NCCOC)c(C)n1CC	-3.8%	i	0.42
CCOCC(=O)N1CCCC(C(=O)OCC)C1 (stereo unspecified)	-4.0%	i	-0.07
Cc1ccc(OCC(=O)Nc2ccc(-c3nc4ncccc4o3)cc2)c(C)c1	-8.7%	i	0.99
O=c1c2ccccc2n(Cc2ccccc2F)c(=O)n1Cc1ccccc1F	-3.0%	i	/
Cc1ccc2cc(-c3noc(C(C)(C)C)n3)c(=O)[nH]c2c1	2.9%	i	-0.75
N#Cc1cc2c(nc1SCc1ccncc1)CCC2	-5.7%	i	-0.48
COc1cc(C2C3C(=O)N(Cc4ccccc4)C(=O)C3ON2c2ccccc2)cc(OC)c1O (stereo unspecified)	-1.1%	i	2
Cc1ccc(Nc2nnc(SCC(=O)Nc3ccc(S(=O)(=O)N4CCOCC4)cc3)s2)cc1	1.2%	i	/
O=S(=O)(/N=S1/CC=CCN1S(=O)(=O)c1ccccc1)c1ccccc1 (stereo unspecified)	1.1%	i	0.0011
Nc1nc2n(n1)C(c1ccco1)CC(c1ccc(F)cc1)N2 (stereo unspecified)	5.4%	i	-0.98
CCc1ccc(S(=O)(=O)NCc2csc(C)n2)s1	-2.0%	i	0.66
CCc1cc2cc(C(=O)N3CCN(c4ccccc4)CC3)sc2s1	-5.4%	i	/
Cc1cc(C(=O)CSc2nnc(-c3ccc(Cl)cc3)n2C)c(C)n1CC1CCCO1 (stereo unspecified)	1.6%	i	/
CCc1cc(=O)oc2c(CN3CCN(C)CC3)c(O)c(Cl)cc12	-8.9%	i	5
O=C(Nc1cccc(OCC(=O)N2CCOCC2)c1)C1CCCCC1	-1.5%	i	-0.28
CC(C)C(=O)Nc1ccc(NC(=O)c2ccco2)cn1	9.0%	i	0.71
Cc1ccc(C(=O)N2CCN(c3ccccc3)CC2)cc1S(=O)(=O)N1CCCC1	12%	i	0.99
Nc1nnc(SC2CC(=O)N(c3ccccc3)C2=O)s1 (stereo unspecified)	0.6%	i	/
S=C(NN=C(C1CC1)C1CC1)Nc1ccccc1	-2.2%	i	/

Quoted from the listing.
Value for Nc1nnc(SC2CC(=O)N(c3ccccc3)C2=O)s1 (stereo unspecified) in Hsc70: 0.6%
Value for S=C(NN=C(C1CC1)C1CC1)Nc1ccccc1 in Hsc70: -2.2%
Value for CC(C)C(=O)Nc1ccc(NC(=O)c2ccco2)cn1 in WNV protease inh: 0.71
Value for Cc1ccc(C(=O)N2CCN(c3ccccc3)CC2)cc1S(=O)(=O)N1CCCC1 in Hsc70: 12%

These rows are one share of the data, so the mix of outcomes need not match the whole.
